# RN4220 kill: kills Staphylococcus aureus RN4220 | 0.33% of 330,000 active | AID 1259311 | inhibition, % (concentration not given with the values) | S. aureus RN4220 growth, OD600, 16 h;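 active means z-score of -3 or lower and OD600 up to 0.18 on both plates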;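 further: plate controls were untreated cells for no effect and reference antibiotic for full effect; stock transfer was 100 nL into about 80 µL; one replicate is shown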
# Mtb hypoxia rep: inhibitors of hypoxia-regulated fluorescent reporter in Mycobacterium tuberculosis; M. tuberculosis hypoxia-regulated fluorescent reporter, fluorescence; fluorescence inhibition, % (test concentration not listed); 0.1% of 300,000 active;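 active means 35 to 45% if threefold the growth effect, above 45% if 1.5-fold the growth effect; inactive means the rest, general growth blockers included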;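 further: wells of about 50 µL received 100 nL stock; 0% = vehicle wells and 100% = reference inhibitor wells; whole bacteria with a GFP reporter of the hypoxia response; strong numbers were not always called active; many hits fall short of the cut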
# ugtP null kill: growth inhibition of S. aureus ugtP deletion strain | AID 1259309 | 0.54% of 330,000 active | growth inhibition, % (test concentration not listed) | S. aureus RN4220 ugtP deletion, OD600 growth, 16 h; some inactives read as strong as hits;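 active means z-score under -3 and OD600 up to 0.15 on both plates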;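 further: plate controls were untreated wells for no effect and antibiotic for full effect; wells of about 80 µL received 100 nL stock; the first replicate is given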
# PrP 5UTR inh: suppresses PrP 5' UTR mRNA reporter expression | 0.35% of 340,000 active | AID 488862 | cell-based PrP 5' UTR mRNA reporter, plate reader | inhibition, % (concentration not given with the values);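 active means every replicate at 50% or more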;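 further: 0 = median of the neutral control wells; tested in H4 reporter cells; numbers are from one replicate; inactives centre near -14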
# Bead autofluor: flagged as autofluorescent in microsphere protease counterscreen; compound autofluorescence counterscreen, microsphere flow cytometry; hits give high values; fluorescence intensity (concentration not given with the values); 3.1% of 360,000 active; AID 624483;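 active means at least 3 SD above the mean of all compounds, about 16000 in these data; inconclusive means too few beads counted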;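 further: 100 nL of 1 mM stock went into each well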
# BJeLR viability: kills HRASV12-expressing BJeLR cells. BJeLR (HRASV12) viability, CellTiter-Glo ATP luminescence, 48 h; reference of the scale not given here. inhibition, % (concentration not given with the values). 0.17% of 300,000 active. AID 1554;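 active means replicate mean above 50%; inconclusive means above 50% but judged a plate artefact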;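 further: 50 nL library stock added to about 25 µL; numbers are from one replicate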
# Mtb hypoxia rep growth: also measured in Mtb hypoxia rep; calls as there; growth inhibition, %; measured here: M. tuberculosis growth (absorbance);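 0% = vehicle and 100% = reference antibiotic; read after six days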
# The depositor's hits bear a star; ? = inconclusive; · = no result given; & = joins results of further samples.
1. O=C(CSc1nnc(SCc2ccccc2)s1)NN=Cc1ccc(C(=O)O)cc1
2. COc1ccc2[nH]c(=O)c(CNc3cccc(C)c3)cc2c1
3. O=C(O)CSc1nc2ccccc2nc1Cc1ccccc1F
4. Clc1ccccc1-c1nc2nc3ccccc3nc2n1-c1ccc2c(c1)OCO2
5. COc1ccc(CN(C)C(=O)COC(=O)c2cc([N+](=O)[O-])ccc2N2CCCC2)c(OC)c1OC
6. Cc1cccc(C)c1NC(=O)CN(C)C(=O)c1cc([N+](=O)[O-])ccc1N1CCOCC1
7. COC(=O)c1ccc(C2C(C(=O)c3cc4ccccc4o3)=C(O)C(=O)N2c2cc(C)on2)cc1 (stereo not given)
8. Nc1nnc(CCCCCc2nnc(N)s2)s1

compound no.	1	2	3	4	5	6	7	8
RN4220 kill	3.7	18.1	1.3	·	3.7	-1.7	·	3.6
Mtb hypoxia rep	1.5	-7.0	13.9	·	21.8*	11.7	·	7.9
Mtb hypoxia rep growth	-5.4	-7.0	7.6	·	56.0*	8.8	·	13.8
ugtP null kill	-4.3	12.4	2.9	·	4.7	2.7	·	5.3
PrP 5UTR inh	·	-43.1	-16.0	-49.5	-5.9	-20.8	-12.1	-33.4
Bead autofluor	·	3286	3233	8963	3126	5995	4612	4328
BJeLR viability	·	4.7	-9.4	-5.9	·	-9.4	0.8	11.3

9. O=C1CC(C(=O)N2CCc3ccccc32)CN1c1ccc(F)cc1 (stereo not given)
10. Cn1cccc1CC(=O)N/N=C/C=C/c1ccccc1
11. COc1cccc(CCN2C(=O)C(=O)N(C(CNCc3ccccc3)Cc3ccccc3F)CC2C(C)(C)C)c1 (stereo not given)
12. CNC(=O)c1cccc(NC(=O)c2ccccc2OCc2ccccc2)c1
13. CC(C)CNC(=O)CCCc1ccccc1
14. COc1ccc(OC)c(C(C(=O)NCc2ccco2)N(C(=O)Cn2nnc3ccccc32)C(C)C)c1 (stereo not given)
15. S=C(NCCN1CCOCC1)Nc1ccccc1Cl
16. C(=N\n1cnnc1)/c1cccs1

compound no.	9	10	11	12	13	14	15	16
RN4220 kill	2.9	·	0.8	4.0	-3.8	4.9	3.9	·
Mtb hypoxia rep	-3.1	·	14.2	8.9	·	·	10.3	·
Mtb hypoxia rep growth	-1.3	·	20.2	-3.8	·	·	5.8	·
ugtP null kill	1.5	·	-29.8	3.6	7.8	6.6	4.9	·
PrP 5UTR inh	-10.7	-15.8	·	-36.0	-18.9	-11.4	2.5	-31.4
Bead autofluor	3242	2507	·	3659	2820	2439	2529	5065
BJeLR viability	-11.0	9.2	·	3.9	1.7	-8.4	13.4	-6.0

17. CCOc1ccc(N(CC(=O)NCc2ccc3c(c2)OCO3)C(=O)c2csnn2)cc1
18. CCCN(CC1CC1)c1nc(N)c(C#N)c(CC#N)c1C#N
19. O=C(Nc1nc2ccccc2s1)C1CC(=O)N(c2ccccc2)C1 (stereo not given)
20. COc1ccc(NC(=O)C2CCCN(C(=O)c3ccc(Cl)cc3)C2)cc1Cl (stereo not given)
21. COc1ccc(OC)c(-c2csc(N(C)C(=O)c3ccco3)n2)c1
22. c1ccc(CSCc2cn3ccccc3n2)cc1
23. O=C(NN=Cc1c(Cl)cccc1Cl)c1ccccc1F
24. O=S(=O)(Nc1ccc(C(F)(F)F)cn1)c1ccccc1

compound no.	17	18	19	20	21	22	23	24
RN4220 kill	5.5	1.2	-0.1	-0.9	4.3	1.8	15.0	4.3
Mtb hypoxia rep	7.0	·	10.5	-4.5	0.6	5.4	16.1	5.0
Mtb hypoxia rep growth	3.6	·	-0.2	10.9	0.5	-1.5	13.2	-11.4
ugtP null kill	9.0	13.4	-3.1	-0.5	9.2	7.9	4.0	9.2
PrP 5UTR inh	1.7	-12.9	-6.9	-0.8	-4.2	-56.9	·	-7.2
Bead autofluor	6138	4843	6329	8705	3242	4083	·	4062
BJeLR viability	-5.2	5.4	-3.1	·	-12.8	-1.2	·	-6.9

25. Cc1ccc(S(=O)(=O)N2CCOCC2)cc1NC(=O)COC(=O)CNC(=O)c1ccc(Oc2ccccc2)cc1
26. CN(C)C1=NCCN1CC1CCCCC1
27. CCC(C)C1CN=C(N)N1CC1CCCCC1 (stereo not given)
28. O=C(CNC(=O)c1ccc(Cl)cc1)NC(CO)c1ccccc1 (stereo not given)
29. NCCNC(=O)Cn1c(=O)c2c3c(sc2n(Cc2ccccc2)c1=O)CCCC3
30. COC(=O)C1=COC(C)C2CN3CCc4c([nH]c5ccccc45)C3CC12 (stereo not given)
31. CCCCCN1C=CC=C/C1=C\C=C(C#N)C#N
32. Cc1ccc(S(=O)(=O)N=C(CN2CCOCC2)N2CCOCC2)cc1

compound no.	25	26	27	28	29	30	31	32
RN4220 kill	2.0	9.1	5.1	0.7	1.7	2.6&4.6	5.5	1.2
Mtb hypoxia rep	13.1	9.3	-2.1	5.9	9.2	-3.1	8.9	-7.4
Mtb hypoxia rep growth	5.8	2.6	-2.5	5.6	2.3	-3.9	10.9	1.9
ugtP null kill	0.2	1.9	1.1	4.2	11.5	9.0&-10.5	6.2	-4.9
PrP 5UTR inh	-22.6	-0.7	·	-27.0	-11.7	-17.6	·	·
Bead autofluor	2189	4056	·	3778	3067	4843	·	·
BJeLR viability	-5.4	·	·	-2.4	-6.2	12.6	-12.2	·

33. CC(C)CN(C(=O)COC(=O)c1cc2ccccc2cc1O)c1c(N)n(Cc2ccccc2)c(=O)[nH]c1=O
34. COC(=O)c1ccc(OC)c(NS(=O)(=O)c2ccc(-n3cnnn3)cc2)c1
35. O=C(NCc1nc2ccccc2[nH]1)C1=CC(c2csc3ccccc23)CC(OCc2ccc(CO)cc2)O1 (stereo not given)
36. O=C1Nc2ccccc2C1=Nc1ccc(Cl)cc1
37. COc1ccc(C2(C)NC(=O)N(Cc3cc(Cl)cc4c3OCOC4)C2=O)cc1OC (stereo not given)
38. COc1ccc(CNC(=O)[C@@H](C)NC(=O)[C@@H]2Cc3ccccc3CN2)cc1
39. COc1cc(NC(=O)C/C(C)=N/NC(=O)Cc2ccccc2)c(OC)cc1Cl
40. Cc1cccc(OP(=O)(Nc2ccc(F)cc2)Oc2cccc(C)c2)c1

compound no.	33	34	35	36	37	38	39	40
RN4220 kill	-3.5	7.0	-1.9&-2.0	3.3	-4.8	1.0	·	-1.4
Mtb hypoxia rep	-11.2	1.1	19.8&2.6	-1.8	-3.6	·	·	-2.4
Mtb hypoxia rep growth	1.0	1.6	11.4&8.1	-2.0	-4.8	·	·	-11.3
ugtP null kill	-0.1	4.7	12.8&-5.9	20.2	-7.4	5.4	·	-20.7
PrP 5UTR inh	-3.0	0.3	·	·	-15.2	-3.5	-12.0	-12.3
Bead autofluor	?	4351	·	3472	4549	4251	2001	4638
BJeLR viability	·	-8.4	·	2.6	-3.5	-1.4	-6.9	3.4

41. O=C(CNC(=O)c1cccc(F)c1)N/N=C/c1cccnc1
42. CSCCC(C(=O)O)N1C(=O)c2ccc(C(=O)O)cc2C1=O (stereo not given)
43. COc1cccc(NC(=O)Cc2cccs2)c1
44. O=C(Nc1cccc(NC(=O)C2CC3CCCC(C2)C3=O)n1)C1CC2CCCC(C1)C2=O (stereo not given)
45. O=C(c1cccs1)c1no[n+]([O-])c1C(=O)c1cccs1
46. Cn1c(C(=O)N2CCN(c3cccc(C(F)(F)F)c3)CC2)cc2sccc21
47. CN(c1ccccc1)S(=O)(=O)c1cccc(C(=O)Nc2ccc(N3CCOCC3)cc2)c1
48. Cc1cc(N=C/C=C2\N(C)c3ccccc3C2(C)C)n(CCC#N)n1

compound no.	41	42	43	44	45	46	47	48
RN4220 kill	·	-2.0	-2.4	-1.6	4.9	2.9	4.1	6.1
Mtb hypoxia rep	·	-0.5	·	·	5.1	13.9	-7.3	1.6
Mtb hypoxia rep growth	·	4.3	·	·	1.8	8.2	1.0	-3.0
ugtP null kill	·	3.9	-1.8	-11.2	4.9	-23.8	5.1	-6.8
PrP 5UTR inh	-5.0	-3.7	-25.2	-17.3	-9.2	-3.8	2.5	·
Bead autofluor	4348	2975	4668	4262	2831	21909*	6677	·
BJeLR viability	-0.7	-5.7	2.2	-2.8	71.4*	-0.5	·	·

49. O=C(O)c1cc(=O)[nH]c2ccc(S(=O)(=O)Nc3ccc(F)cc3)cc12
50. Cc1cccc(C2Nc3ccccc3C(=O)N2c2ccccc2)n1 (stereo not given)
51. CNC(=O)CS(=O)CC(=O)Nc1cc(OCCOC)c(Cl)cc1Cl (stereo not given)
52. CCc1nc2ccc(C(=O)NCc3ccccc3)cc2nc1CC
53. CCc1cccc(NC(=O)C2CCCN2S(=O)(=O)c2ccccc2C(F)(F)F)c1 (stereo not given)
54. CCCNC(=S)NNC(=O)c1cccs1
55. CCOc1ccc(N2CC(C(=O)NCc3ccco3)CC2=O)cc1 (stereo not given)
56. COc1cc(OC)c2c(-c3ccccc3)cc(=O)oc2c1C(CCN1CCCC1)c1ccc2c(c1)OCO2 (stereo not given)

compound no.	49	50	51	52	53	54	55	56
RN4220 kill	4.6	0.7	2.3	11.7	1.5	5.7	5.5	-2.9
Mtb hypoxia rep	11.6	15.3	2.6	19.5	-0.9	-2.7	0.0	6.4
Mtb hypoxia rep growth	13.1	6.1	4.4	10.3	1.5	2.5	1.1	22.0
ugtP null kill	1.9	10.6	5.6	13.1	0.6	2.9	3.2	-31.1
PrP 5UTR inh	·	-0.3	-8.1	-51.6	-21.3	7.8	-7.4	0.6
Bead autofluor	3364	8077	4908	3959	5502	4226	5599	2898
BJeLR viability	-1.6	3.0	-1.1	-21.0	·	8.9	-6.0	11.7

57. Cn1c(SCC(=O)N/N=C/c2cccnc2)nnc1-c1ccccc1
58. COc1cccc(CNC(=O)CSc2nnc3c(n2)[nH]c2ccc(F)cc23)c1
59. COC(=O)c1ccc(CN(Cc2ccc(C(=O)OC)o2)C(C)(C)C)o1
60. O=C(c1ccc2c(c1)CCN2S(=O)(=O)c1ccccc1)N1CCN(c2ccccc2F)CC1

compound no.	57	58	59	60
RN4220 kill	·	4.3	2.3	2.5
Mtb hypoxia rep	·	-1.6	·	-4.8
Mtb hypoxia rep growth	·	0.2	·	1.0
ugtP null kill	·	11.7	5.6	0.5
PrP 5UTR inh	-13.5	-18.7	-25.7	-10.7
Bead autofluor	3231	3619	2893	4548
BJeLR viability	-2.7	0.2	0.1	-4.8

# Filtered by structure, the entries above containing a Cl atom
4. Clc1ccccc1-c1nc2nc3ccccc3nc2n1-c1ccc2c(c1)OCO2
15. S=C(NCCN1CCOCC1)Nc1ccccc1Cl
20. COc1ccc(NC(=O)C2CCCN(C(=O)c3ccc(Cl)cc3)C2)cc1Cl (stereo not given)
23. O=C(NN=Cc1c(Cl)cccc1Cl)c1ccccc1F
28. O=C(CNC(=O)c1ccc(Cl)cc1)NC(CO)c1ccccc1 (stereo not given)
36. O=C1Nc2ccccc2C1=Nc1ccc(Cl)cc1
37. COc1ccc(C2(C)NC(=O)N(Cc3cc(Cl)cc4c3OCOC4)C2=O)cc1OC (stereo not given)
39. COc1cc(NC(=O)C/C(C)=N/NC(=O)Cc2ccccc2)c(OC)cc1Cl
51. CNC(=O)CS(=O)CC(=O)Nc1cc(OCCOC)c(Cl)cc1Cl (stereo not given)

compound no.	4	15	20	23	28	36	37	39	51
RN4220 kill	·	3.9	-0.9	15.0	0.7	3.3	-4.8	·	2.3
Mtb hypoxia rep	·	10.3	-4.5	16.1	5.9	-1.8	-3.6	·	2.6
Mtb hypoxia rep growth	·	5.8	10.9	13.2	5.6	-2.0	-4.8	·	4.4
ugtP null kill	·	4.9	-0.5	4.0	4.2	20.2	-7.4	·	5.6
PrP 5UTR inh	-49.5	2.5	-0.8	·	-27.0	·	-15.2	-12.0	-8.1
Bead autofluor	8963	2529	8705	·	3778	3472	4549	2001	4908
BJeLR viability	-5.9	13.4	·	·	-2.4	2.6	-3.5	-6.9	-1.1

# Screens (PubChem)
